# Screening results from PubChem BioAssay.
# HPGD block: qHTS Assay for Inhibitors of HPGD (15-Hydroxyprostaglandin Dehydrogenase); 15-hydroxyprostaglandin dehydrogenase [NAD(+)] (Homo sapiens), P15428; purified HPGD, NADH fluorescence kinetic, PGE2 substrate; Potency, µM, for inactives: top-dose activity change, negative = inhibition, most hits filed as inhibitors; actives 4.3% (n = 150,000); AID 894, 2007; active = well fitted inhibition curve with a large enough effect (not every such curve was filed as active); inconclusive = small, poorly fitted or top-dose-only effect, or another doubt; inactive = no such curve, though single readings can be large or run the other way;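 also: top concentration of the series not given in the record; plate controls included wells without enzyme; inactives centre near -10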
# Target sequence (P15428 whole entry, looked up): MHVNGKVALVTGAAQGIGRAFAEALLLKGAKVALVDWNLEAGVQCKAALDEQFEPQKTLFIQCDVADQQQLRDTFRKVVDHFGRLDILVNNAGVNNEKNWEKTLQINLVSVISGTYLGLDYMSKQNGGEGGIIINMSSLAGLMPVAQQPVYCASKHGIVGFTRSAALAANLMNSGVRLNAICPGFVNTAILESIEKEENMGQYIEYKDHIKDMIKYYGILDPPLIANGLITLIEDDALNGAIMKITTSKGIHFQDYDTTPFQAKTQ
#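 20 nM HPGD preincubated 15 min at room temperature with compound in 50 mM Tris-HCl pH 8, 0.01% Tween 20. Started with 1 mM NAD+ and 30 uM prostaglandin E2; NADH fluorescence (360/450 nm) read 5 times over 30-s intervals, last minus first.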
# The depositor's hits bear a star; u = inconclusive; & = joins results of further samples. % is scaled to controls: 0 for no effect and ±100 for the full control effect; potency is read from the fitted curve at half-maximal effect.
SMILES,HPGD block
CCn1c(SCC(=O)NC(C)C)nnc1-c1cccs1,-11.0%
CCOc1ccc(N2C(=O)C(Cl)=C(Nc3ccccc3O)C2=O)cc1,25.1µM*
CC(C)CSc1nc(N2CCOCC2)c2c(c1C#N)CC(C)(C)SC2,u
COCCCNC(=O)CC(NS(=O)(=O)c1ccc(C)cc1)c1ccco1 (stereo unspecified),-11.9%
COc1ccccc1NC(=O)NCc1ccc2c(c1)OCO2,-13.8%
Cc1nc2ncnn2c(C)c1CCC(=O)NCc1ccc2c(c1)OCO2,-6.1%
Cc1ccnc(NS(=O)(=O)c2ccc(NC(=O)c3ccc(N4C(=O)CCC4=O)cc3)cc2)n1,-3.0%
COc1ccc2[nH]cc(C=O)c2c1,-27.5%
N#Cc1c(C#N)c(-c2ccccc2)n(-c2ccc(C(=O)O)cc2)c1N,-8.5%
Cc1cc(Cl)ccc1NC(=S)NCC(C)C,-14.9%
Cc1cccc(NC(=O)/C(C#N)=C\c2cccnc2)c1,-13.4%
CCOc1ccc(/C=C/C(=O)NCCc2ccc(OC)c(OC)c2)cc1,-4.9%
Cc1cc(=O)oc(C)c1C(=O)N1CCCc2ccccc21,0.8%
CC(=O)N[C@@H](CSC/C=C(\C)CC/C=C(\C)CCC=C(C)C)C(=O)O,-6.9%
COC(=O)c1c(NC(=O)c2ccc(C)o2)sc2c1CCCCC2,u

# By substructure: the compounds so far with nitrogen in an aromatic ring
SMILES,HPGD block
CCn1c(SCC(=O)NC(C)C)nnc1-c1cccs1,-11.0%
CC(C)CSc1nc(N2CCOCC2)c2c(c1C#N)CC(C)(C)SC2,u
Cc1nc2ncnn2c(C)c1CCC(=O)NCc1ccc2c(c1)OCO2,-6.1%
Cc1ccnc(NS(=O)(=O)c2ccc(NC(=O)c3ccc(N4C(=O)CCC4=O)cc3)cc2)n1,-3.0%
COc1ccc2[nH]cc(C=O)c2c1,-27.5%
N#Cc1c(C#N)c(-c2ccccc2)n(-c2ccc(C(=O)O)cc2)c1N,-8.5%
Cc1cccc(NC(=O)/C(C#N)=C\c2cccnc2)c1,-13.4%

# Next section:
SMILES,HPGD block
COC(=O)[C@@]1(Cc2ccc(F)cc2)[C@H]2c3cc(C(=O)N4CCCC4)n(CCN4CNCC4=O)c3C[C@H]2CN1C(=O)c1ccccc1,-8.2%
COc1cccc2[nH]c3c(N4CCC(C)CC4)ncnc3c12,u
COc1cccc(C2=NOC(C(=O)Nc3cc(OC)c(OC)c(OC)c3)C2)c1 (stereo unspecified),-14.4%
CCN(C(=O)COc1cc(=O)n(C)c2ccccc12)c1cccc(Cl)c1,2.5%
COc1cc(OC)c2c(c1Cl)O[C@@]1(C2=O)[C@H](C)CC(=O)C[C@@H]1OC,-28.4%
Cc1cc(NC(=O)CSc2nc3ccsc3c(=O)n2CCCCC(=O)O)no1,-12.9%
CCOC(=O)c1ccc(-c2cc(C)no2)[nH]1,-7.7%
CC1Oc2ccccc2OC1C(=O)Nc1ccccn1 (stereo unspecified),3.2%
COc1ccccc1-c1noc(CCC(=O)Nc2cc(C(F)(F)F)ccc2Cl)n1,-11.7%
O=C(NC1CCCCC1)C1CCN(S(=O)(=O)c2cccs2)CC1,-8.7%
Cc1ccn2c(NC(=O)C(C)(C)Oc3ccc(Cl)cc3)c(-c3cccs3)nc2c1,u
O=C(Cc1cccc2ccccc12)NCC1CCCO1 (stereo unspecified),-18.1%
COc1ccc(CCn2c(C)nc3c(c(=O)c4ccccc4n3C)c2=O)cc1,-15.8%
Cn1c(C(=O)NCCN2CCOCC2)cc2c(=O)n(C)c3ccccc3c21,u
CCc1nc(N)c(C#N)c(-c2ccco2)c1C,-29.3%
Cc1cccc(N2CCN(S(=O)(=O)c3ccc4c(c3)CCC(=O)N4)CC2C)c1 (stereo unspecified),-2.3%
CC1(C)CN2C(=S)N(c3ccccc3)C(c3ccccc3)N2C1 (stereo unspecified),-6.8%
COc1ccc2cc(C(=O)Nc3ccc(F)cc3)sc(=O)c2c1OC,-15.3%
COc1ccccc1Nc1nc(N)nc(CSC(=S)N2CCCCC2C)n1 (stereo unspecified),-15.6%
Cn1c(C(=O)NCCN2CCc3ccccc3C2)cc2c(=O)[nH]c3ccccc3c21,-15.8%
CCn1c(=O)cc(C(=O)OC)sc1=Nc1ccc(F)c(F)c1,-25.6%
CN(Cc1c(F)cccc1Cl)c1nnnn1-c1ccccc1,-5.2%
O=C1CC(Sc2ncccn2)C(=O)N1c1ccccc1 (stereo unspecified),-9.6%
COc1cc(C(=O)NCCN2CCCC2)cc(OC)c1OC,-1.5%
COc1ccc(COc2ccccc2C(=O)Nc2ccccn2)cc1[N+](=O)[O-],-18.7%
O=C(NC(NCCCN1CCOCC1)(C(F)(F)F)C(F)(F)F)C1CCCCC1,-2.3%
Nc1ccc(-c2nc3ccc(N)cc3o2)cc1,u
CCCCCCn1cnc2c(oc3nc4c(cc32)CCCC4)c1=O,-17.7%
CCCCOC(=O)C1[C@H]2C(=O)N(c3ccccc3CC)C[C@]23C=C[C@H]1O3 (stereo partly specified),-10.2%
CN(Cc1ccccc1)C(=O)COc1cc(=O)n(C)c2ccccc12,-4.6%

# Gathered by group, the entries above with an NH in an aromatic ring (4)
SMILES,HPGD block
COc1ccc2[nH]cc(C=O)c2c1,-27.5%
COc1cccc2[nH]c3c(N4CCC(C)CC4)ncnc3c12,u
CCOC(=O)c1ccc(-c2cc(C)no2)[nH]1,-7.7%
Cn1c(C(=O)NCCN2CCc3ccccc3C2)cc2c(=O)[nH]c3ccccc3c21,-15.8%

# (next part)
SMILES,HPGD block
O=C(CN(Cc1ccccc1)S(=O)(=O)c1ccc(F)cc1)NCCC1=CCCCC1,-12.7%
Cc1ccc(S(=O)(=O)N2CCC(C(=O)N/N=C/c3cccnc3)CC2)cc1,1.6%
O=C(O)c1cc(NCc2ccccc2)ccc1N1CCOCC1,u
Cc1ccccc1NC(=O)Cn1cccc1,31.6µM*
CC(=O)c1ccc(NC(=S)N(C)C2CCN(C)CC2)cc1,-6.6%
COC(=O)c1ccc(N2C(=O)CC(N3CCOCC3)C2=O)cc1 (stereo unspecified),-7.0%
Cc1ccc(/C=N/NC(=O)c2c[nH]c3ccccc23)s1,-8.2%
CN(C)c1ccc(O)c2c1C[C@@H]1C[C@H]3C(N(C)C)C(=O)C(C(N)=O)=C(O)[C@@]3(O)C(=O)C1=C2O (stereo partly specified),28.2µM*
C1CCN=C(NC23CC4CC(CC(C4)C2)C3)CC1,-6.3%
Cc1cc(C)n2ncc(C(=O)NCc3cccnc3)c2n1,u
COc1cc(C(=O)Nc2ccc3c(c2)C(=O)N(CCC(=O)O)C3=O)cc(OC)c1OC,-8.9%
COc1ccc(/C=N/NC(=O)c2ccc(Cn3cc([N+](=O)[O-])cn3)o2)cc1O,-6.3%
O=C(NCc1ccc2c(c1)OCO2)C1CCN(S(=O)(=O)c2cccs2)CC1,-11.3%
COc1c(C)cc(S(=O)(=O)NC2CC(C)(C)NC(C)(C)C2)c(C)c1C,-14.8%
CCn1c(=O)n(CC(=O)N(C)Cc2ccccc2)c(=O)c2ccccc21,-16.6%
Fc1ccccc1/C=C/c1ccc2ccccc2n1,-17.5%
CN(C)C(=O)Oc1ccc[n+](C)c1,-9.3%&3.8%&-8.0%
O=C1C2C3C=CC(C3=C(c3ccccc3)c3ccccc3)C2C(=O)N1Cc1ccccc1 (stereo unspecified),39.8µM*
Cc1oc(-c2ccccc2)nc1C(=O)Nc1nccs1,-5.8%
CNC(=S)N1CCN(c2ccccn2)CC1,-14.0%
O=C1NCCN1CCNS(=O)(=O)c1ccc(F)cc1,-10.7%
COC(=O)CN(c1ccc(OC)cc1)S(=O)(=O)c1ccc(OC)c(OC)c1,-4.9%
Cc1ccc(-c2n[nH]c(=S)n2Cc2ccccc2)cc1,u
COc1ccccc1NC(=O)c1c(Nc2ccccc2F)sc(C(=O)Nc2cccc(Cl)c2)c1N,-11.3%
COc1ccc(CNc2nn[nH]n2)cc1OC,4.0%
CNc1ncc(C(=O)c2ccc(Cl)cc2)s1,-27.2%
Cc1[nH]n(C(N)=S)c(=O)c1N=Nc1ccc(S(=O)(=O)N2CCCCCC2)cc1,15.8µM*
COC(=O)c1c(NC(NC(=O)C(C)C)C(Cl)(Cl)Cl)sc2c1CCC2 (stereo unspecified),-8.8%
COc1ccc(C2(C(=O)N3CCOCC3)CCCC2)cc1,-14.6%
COc1cc(OC)c(NC(=O)CCc2nc(-c3ccc(C)cc3)no2)cc1Cl,u
COC(=O)[C@@H]1C[C@@]2(O)[C@@H](O)[C@@H](O)[C@@H](O)C[C@H]2N1Cc1ccc(N2CCOCC2)cc1,-7.1%
COc1ccc(Cl)cc1NC(=O)c1ccccc1C,-14.2%
CN(c1ccc(C(=O)N2CCN(c3ccc(F)cc3)CC2)cc1)S(C)(=O)=O,-5.6%
CCOP(=O)(OCC)c1nc(/C=C/c2ccccc2)oc1NCc1ccc(OC)cc1,u
COc1cccc(/C=N/Nc2nc(Nc3ccccc3)nc(-n3nc(C)cc3C)n2)c1O,-14.4%
COc1cccc(-c2csc3nc[nH]c(=O)c23)c1,-26.1%
CCN1c2ccccc2-c2nc3ccccc3n2C1c1ccco1 (stereo unspecified),u
C=C(Br)Cn1c(CCC)nc2ccccc21,-10.8%
CNc1nc2cc([N+](=O)[O-])c([N+](=O)[O-])cc2nc1NC,-7.8%
C=CCSc1nc(O)c(CC)c(=O)n1C(C)CC (stereo unspecified),-9.0%
CCOC(=O)C1CCCN(C(=S)Nc2cc(C)cc(C)c2)C1 (stereo unspecified),-13.0%
NS(=O)(=O)c1cc(Cl)c(Cl)c(S(N)(=O)=O)c1,-4.6%
O=C(CS(=O)(=O)Cc1ccccc1)N1CCN(Cc2ccc3c(c2)OCO3)CC1,3.2%
CCCOC(=O)c1c(NC(=O)/C=C/c2cnn(C)c2C)sc(C(=O)OC)c1C,u
CSc1oc(-c2ccccc2)nc1S(=O)(=O)c1ccc(F)cc1,-12.4%
NC(N)=S,2.9%
Cc1cc(C)n(-c2nc(NCCCO)c3c4c(sc3n2)CCCC4)n1,u
O=c1[nH]c(SCc2ccccc2Cl)nc2c1CCC2,1µM*
CC(=O)Nc1cccc(C(=O)Nc2ccccc2N2CCOCC2)c1,-8.1%
CCC(O)(CC)C(=O)NN(C(=O)CCl)c1ccccc1,0.6%
Cc1cc(Nc2ccc(F)cc2F)n2ncnc2n1,-9.6%
Cc1oc(-c2ccccc2Cl)nc1CSCC(=O)NC1CC1,-6.4%
O=C1/C(=C\c2ccc3c(c2)OCO3)CCC/C1=C/c1ccc2c(c1)OCO2,-18.5%
CCOC(=O)C1=C(C)N=C2c3ccccc3C(=O)C2C1c1ccc(Br)cc1 (stereo unspecified),8.0%
CN(C)S(=O)(=O)c1ccc(Cl)c(C(=O)Nc2ccccc2[N+](=O)[O-])c1,-2.6%
O=C(CSc1nc2scc(-c3ccco3)c2c(=O)n1-c1ccccc1)NCC1CCCO1 (stereo unspecified),-9.2%
CC1(C)Cc2c(C#N)c(SCCC#N)nc(N3CCOCC3)c2CS1,2.0%
Cc1cc(NC(=O)CS(=O)(=O)c2cn(C)c3ccccc23)no1,-0.4%
CCCn1c(NC(=O)C2COc3ccccc3O2)nc2ccccc21 (stereo unspecified),-5.2%
CCOC(=O)c1nnn(-c2nc(OC)nc(N3CCCC3)n2)c1-c1ccccc1,-8.2%
# Next structures
SMILES,HPGD block
COC(=O)Cc1cc(=O)n2[nH]c(C)cc2n1,-29.1%
Cc1occc1C(=O)N1CCN(Cc2ccccc2)CC1,-3.7%
CC(=O)Nc1ccc(C(=O)N(C)C(C(=O)Nc2ccccc2)c2ccccn2)cc1 (stereo unspecified),-3.0%
CCOC(=O)N1CCC(N2C(=O)c3ccccc3C2Nc2cc(C(=O)OC)cc(C(=O)OC)c2)CC1 (stereo unspecified),u
NNC(=O)c1ccc(Cn2cc(Br)cn2)cc1,-6.0%
O=S(=O)(c1ccc2c(c1)OCO2)N1CCN(c2nnnn2-c2ccccc2)CC1,-19.6%
O=C(c1ccco1)c1n[nH]nc1-c1ccccc1,-8.8%
CC(C)=CCSc1nnc([C@@H](NC(=O)OC(C)(C)C)C(C)C)o1,-3.4%
C=CCNS(=O)(=O)c1cccc2cc(C(=O)O)c(O)cc12,-5.4%
Cc1ccc(C)c(NC(=O)C2CC=CCC2C(=O)O)c1 (stereo unspecified),-3.5%
CCN1CCN(C(=S)c2ccc([N+](=O)[O-])cc2)CC1,25.1µM*
C=CCN(C1CCCCC1)S(=O)(=O)c1ccc2c(c1)oc(=O)n2C,-15.5%
CCN(CC)c1c(-c2ccccc2)c2cc(C)ccc2[nH]c1=O,-27.1%
C=CCn1c(Cc2cccs2)nnc1SCC(=O)c1ccc2ccccc2c1,u
O=C1CC(c2ccccc2)Oc2ccccc21 (stereo unspecified),-16.9%
COc1cccc(CNC(=O)C2CCN(S(=O)(=O)N3CC(C)CC(C)C3)CC2)c1 (stereo unspecified),-6.9%
O=C(Nc1ccccc1)c1ccc(S(=O)(=O)N2CCCC2)cc1,-8.4%
COc1cc(S(=O)(=O)Nc2ccccn2)ccc1F,-18.8%
O=C(c1ccccc1-c1nc(-c2ccccc2)no1)N1CCCC1,-1.6%
O=C(/C=C/c1cccc([N+](=O)[O-])c1)N1CCN(Cc2ccc3c(c2)OCO3)CC1,-3.3%
O=C(COc1ccc(Cl)cc1Br)N1CCN(c2ccccc2)CC1,-9.0%
CC(=O)Oc1ccc2c(c1)OC(c1ccccc1)CC21CC(C)(C)NC(=O)N1 (stereo unspecified),-1.1%
O=c1onc(-c2ccc(Cl)cc2)n1Cc1ccc(F)cc1,-1.8%

# The list is partial. The share of hits here may be higher or lower than overall.
